# SmPrx2 inh – Schistosoma Mansoni Peroxiredoxins (Prx2). Schistosoma mansoni peroxiredoxin 2 (Prx2). S. mansoni Prx2 activity coupled to TGR/GSH (TGR is thioredoxin glutathione reductase), NADPH fluorescence loss, qHTS; some inactives read as strong as hits. Potency, µM. 65,000 tested, 0.07% active; active means full or partial inhibition curve with a strong effect at the top dose; inconclusive means weaker partial or single-point curve; inactive means no accepted curve; further: series up to 57 µM; many of its hits are not listed in these tables
#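 Activity is read as the drop in NADPH fluorescence (365/450 nm), recorded every 30 sec for 8 min after H2O2 addition. Prx2 is coupled to TGR-driven NADPH oxidation through glutathione, in phosphate buffer pH 7.4.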
# Anthrax LT inh – qHTS Assay for Anthrax Lethal Toxin Internalization. Cells, anthrax lethal toxin internalization, FRET ratio (460/530). Potency, µM (series often up to 40 µM), for the others: at the highest dose activity change, negative = inhibition, hits mostly inhibitors. 70,000 tested, 0.67% active. AID 912, 2007; active = well fitted falling ratio curve with the 530 nm signal flat; inconclusive = other ratio curves, or a change in one channel alone; inactive = flat curves in the ratio and both channels; the % refers to the ratio; further: on the % scale 0 is the no-effect control and ±100 the full control effect; nearly all actives have a fitted effect of over 50% in size; tested in ME-180 cells; beta-lactamase reporter
# Active calls of the source: *; u = inconclusive; x = not tested or not shown; [ ] = another dose, or the depositor's remark. Potency means the concentration at half of the fitted maximal effect. Only part of the results is shown; the hit share may differ from the screen's.
structure | SmPrx2 inh | Anthrax LT inh
O=C(CSc1nnnn1-c1ccccc1)NC(=O)Nc1ccc2c(c1)OCCO2 | >57 | 21%
Cc1ccc(-c2nnn(CC(=O)N3CCN(c4ccccc4)CC3)n2)o1 | >57 | -1%
COc1ccc(NS(=O)(=O)c2cc(OC)ccc2NC(=O)c2cc(C)oc2C)cc1 | >57 | u
Cc1cc(NC(=O)CCC(=O)N(CCC(C)C)C(C(=O)NC2CCCC2)c2cccnc2)no1 (centres undefined) | >57 | 2%
COC(=O)Cn1c(C(=O)N(C)C)cc2c1C[C@H]1CN(C(=O)c3ccccc3)[C@@](Cc3ccc(F)cc3)(C(=O)OC)[C@@H]21 | >57 | 6%
Cc1ccc(S(=O)(=O)CC(=O)N2CCCC2)cc1 | >57 | x
CCN(CC)S(=O)(=O)c1cccc(-c2nnc(SCC(N)=O)n2CCc2ccccc2)c1 | >57 | -17%
O=C(Nc1ccc(O)cc1)c1ccc(C(=O)c2ccccc2)o1 | >57 | 5%
CC1(C)Cc2c(sc3c2c(=N)n(Cc2ccco2)c(=O)n3Cc2ccc(Cl)cc2)CO1 | >57 | 9%
O=C(c1ccccc1)N1CCN(C(=O)c2ccccc2Br)CC1 | >57 | -2%
COc1cc2c(cc1OC)C(C(=O)NCCN1CCOCC1)C1c3ccccc3CCN1C2=O (centres undefined) | >57 | 18%
CC(=O)N1CCc2cc(S(=O)(=O)NC3CCCc4ccccc43)ccc21 (centres undefined) | >57 | -3%
O=C(Nc1ccc(CN2CCOCC2)cc1)c1cccc(F)c1 | >57 | -7%
CC(=O)Nc1c(C(=O)N2CCN(c3ncccn3)CC2)cnn1-c1ccccc1Cl | >57 | -9%
CC1CN(C(=O)CSc2nnc(-c3ccncc3)n2-c2ccccc2)CC(C)O1 (centres undefined) | >57 | 12%
Nn1c(SCC(=O)Nc2cccc(F)c2)nnc1C1CCCCC1 | >57 | -7%
COc1ccc(C(CC(=O)O)NC(=O)COc2ccccc2)cc1 (centres undefined) | >57 | 1%
CC(C)[C@@]1(NC(=O)[C@@H]2C=C3c4cccc5[nH]cc(c45)C[C@@H]3N(C)C2)O[C@]2(O)[C@H]3CCCN3C(=O)[C@H](Cc3ccccc3)N2C1=O | >57 | -12%
CCOc1ccc(NC(=O)CN(c2cc(C)cc(C)c2)S(=O)(=O)c2c(C)noc2C)cc1 | >57 | -20%
COC(=O)c1ccccc1NC(=O)CSc1ccccc1 | x | -8%
O=c1cc(O)n(-c2ccccc2F)c(=S)[nH]1 | >57 | 2%
CC(=O)N(c1ccc(Br)cc1)C1C=CS(=O)(=O)C1 (centres undefined) | >57 | -2%
Clc1ccc(CSC2=NCCN2)cc1Cl | >57 | 3%[8 µM]
O=S(=O)(NCc1ccccn1)c1ccc(Br)s1 | >57 | -6%
COc1c(-c2ccccc2)oc2c(ccc3occc32)c1=O | >57 | -8%
O=C(NCc1ccc(N2CCCC2=O)cc1)c1cn(Cc2ccccc2)nn1 | >57 | 4%
COc1ccc(CCNC(=O)C2CCN(S(=O)(=O)N3CCOCC3)CC2)cc1OC | >57 | -26%
Cc1cccn2c(=O)c3cc(C#N)c(=O)n(Cc4cccnc4)c3nc12 | >57 | -7%
O=C(Nc1ccccc1N1CCOCC1)c1ccc(Br)o1 | >57 | -5%
O=C(CSc1nnc(CNc2ccc(Cl)cc2)o1)Nc1nc2ccccc2s1 | >57 | -4%

# More entries:
structure | SmPrx2 inh | Anthrax LT inh
CCNc1ncc2nc(-c3ccc(Cl)cc3)c(=O)n(C3CC3)c2n1 | >57 | u
COc1nnc(-c2ccc(C)c(S(=O)(=O)NCCO)c2)c2ccccc12 | x | -6%
CC(C)(C)NS(=O)(=O)c1ccc(NS(=O)(=O)c2ccc(F)cc2)cc1 | >57 | -5%
N[C@@H](C(=O)O)[C@H](O)C(=O)O | >57 | 0%
COc1cccc(CN2C(=O)CCC2(C)C(=O)NC2CCCCCC2)c1 (centres undefined) | >57 | -17%
Cc1ccc(-n2nc3c(c2NC(=O)c2c(-c4ccccc4Cl)noc2C)CS(=O)(=O)C3)c(C)c1 | >57 | u
CCCC(=O)Nc1ccc(NC(=O)CCc2ccccc2)cn1 | >57 | 3%
COCCCNC(=O)c1cc2c(=O)n(C)c3ccccc3c2n1C | >57 | 13%
Nc1ccc(C(=O)OCCCc2nc3ccccc3[nH]2)cc1 | >57 | -17%
COc1ccc(C2CC(=O)NC3=C2C(=O)CCC3)cc1Cl (centres undefined) | >57 | -2%
C=CCSC1=N/C(=C\C=C\c2ccco2)C(=O)S1 | x | -12%
CCOC(=O)N1CCN(c2ccc(Cl)c(Cl)c2)CC1 | >57 | -7%
CCCCCCn1c(NCC)nc2c1c(=O)[nH]c(=O)n2C | >57 | 10%
Cc1ccc(C2N(c3ccc(Cl)c(Cl)c3)C(=O)C3CCCN32)o1 (centres undefined) | >57 | 3%
CCCCCCCCn1sccc1=O | x | u
CC1(C)NC(=O)N(CC(O)COc2ccc(-c3ccc(C#N)cc3)cc2)C1=O (centres undefined) | >57 | -24%
Cc1cc(Cl)c(S(=O)(=O)N2CCSCC2)cc1OCC(N)=O | >57 | -5%
O=C(NCCc1ccccc1)c1cnc2sccn2c1=O | >57 | -2%
CC(C)c1ccc(OC(=O)NCCO)cc1 | x | u
CN(CC(=O)N1CCN(C2CCCCC2)CC1)S(=O)(=O)c1cccc2nsnc12 | >57 | 2%
Cc1cccc(NC(=O)c2sc3nc(-c4ccccc4)cn3c2C)n1 | >57 | u
Cn1nc(-c2ccc(N3CCOCC3)c(NC(=O)COc3ccccc3)c2)c2ccccc2c1=O | >57 | u
C=CCn1c(SCC(=O)Nc2sccc2C(N)=O)nc2sc(C)c(C)c2c1=O | >57 | 11%
COc1ccc(Cl)cc1-c1nc(-c2ccc(Br)o2)no1 | >57 | -8%
O=C(c1cccc(F)c1)N1CCN(C(=O)C2CC2)CC1 | >57 | 9%
O=c1c2c(-c3ccccc3)csc2nc2n1CCC2 | >57 | -4%
COc1cccc(C2NC(CCSC)(C(=O)O)C3C(=O)N(C(C)C)C(=O)C23)c1O (centres undefined) | >57 | 2%
CCOc1ccc(Br)cc1/C=N/O | x | -16%
Cc1cnc(C(=O)OCC(=O)NC(=O)NC(C)C)cn1 | >57 | -5%
CCCCn1c(CN2CCN(C(=O)OCC)CC2)nc2c1c(=O)n(C)c(=O)n2C | >57 | -3%

# Following part:
structure | SmPrx2 inh | Anthrax LT inh
O=CNC1CCCc2c1[nH]c1ccc(Cl)cc21 (centres undefined) | >57 | -3%
COCCOC(=O)C1=C(C)NC2=C(C(=O)CCC2)C1c1ccc2c(c1)OCO2 (centres undefined) | >57 | 18%
CCN1CCN(C(c2cccs2)C(C)NS(=O)(=O)c2ccc(Br)cc2)CC1 (centres undefined) | >57 | -25%
CCOc1cccc(C(=O)Nc2cccnc2)c1 | x | -11%
COc1ccc(/C=N/n2cnnc2SCc2ccc(OC)cc2)cc1 | >57 | -31%
CC1=C(C)SC(=C(C#N)c2nnc(N3CCOCC3)n2-c2ccccc2)S1 | >57 | -16%
O=C(c1ccco1)N1CCN(C(=O)c2oc(=O)c3ccccc3c2-c2ccccc2)CC1 | >57 | -5%
CCN1CCN(CCCNC(=O)Cn2cc3c(n2)CCCC3)CC1 | >57 | -7%
O=C(Nc1nc2c(s1)C(=O)CCC2)c1ccccc1 | x | 3%
CCOC(=O)c1cnc(SCc2nc(N)nc(Nc3ccccc3)n2)nc1N | >57 | -1%
Cc1cc(C)n(-c2ccc(C(=O)NC(C)C)cc2)n1 | >57 | -9%
Oc1ccccc1-c1nnc(-c2ccc(C(F)(F)F)cc2)o1 | >57 | 27%
O=C(CSc1nnc(SCc2ccc(Cl)cc2)s1)N1CCOCC1 | >57 | 2%
CC(=O)c1cccc(NC(=O)C2CCCN(S(=O)(=O)c3ccccc3)C2)c1 (centres undefined) | >57 | -22%
COc1ncnc2sc(-c3ccccc3)cc12 | >57 | u
O=c1c(-c2ccc(F)cc2)nc2cnc(N3CCOCC3)nc2n1C[C@H]1CCCO1 | >57 | u
Cc1ccc(S(=O)(=O)c2nc(C(C)(C)C)oc2N2CCOCC2)cc1 | >57 | 11%
Cc1c(NC(=O)Nc2c(Cl)cccc2Cl)c(=O)n(-c2ccccc2)n1C | >57 | 1%[8 µM]
CCOc1cc2[nH]c(=O)n(CCC(=O)NCCc3ccc(OC)c(OC)c3)c(=O)c2cc1OCC | >57 | 5%
CCc1c(C)nc2ncnn2c1N1CCC(C(=O)Nc2ccc(C)cc2)CC1 | >57 | -4%
O=C(Nc1n[nH]c(C2CCCCC2)n1)C1CCCCC1 | >57 | u
CNc1nc2sc3c(c2c(=O)n1C)CC(C)(C)SC3 | >57 | x
CCN1CCCC1Cn1c(-c2ccccc2)nc2c(NCc3ccccc3)nc(C)nc21 (centres undefined) | x | -16%
CCc1sc(NC(=O)CN2CCOCC2)nc1-c1ccccc1 | >57 | 4%
CC1(C)C2CCC1(CS(=O)(=O)N1CCCc3ccccc31)C(=O)C2 (centres undefined) | >57 | 6%
CN(C)c1ncc(C(=O)O)cn1 | >57 | -10%
CN(C)C(=O)c1ccc(-c2cncnc2N(C)Cc2ccco2)cc1 | >57 | -6%
Nc1c(S(=O)(=O)c2ccccc2)nnn1-c1ccccc1 | >57 | 17%
NC(=O)C1CCN(C(=O)c2cc(S(=O)(=O)N3CCOCC3)c(Cl)cc2Cl)CC1 | >57 | 11%
CCn1c(SCC(=O)Nc2ccc(N3CCOCC3)c(Cl)c2)nnc1-c1ccc(N)cc1 | >57 | -13%

# Sorted by length of the SMILES (highest first): part of the list above
structure | SmPrx2 inh | Anthrax LT inh
O=c1c(-c2ccc(F)cc2)nc2cnc(N3CCOCC3)nc2n1C[C@H]1CCCO1 | >57 | u
CCc1c(C)nc2ncnn2c1N1CCC(C(=O)Nc2ccc(C)cc2)CC1 | >57 | -4%
O=C(CSc1nnc(CNc2ccc(Cl)cc2)o1)Nc1nc2ccccc2s1 | >57 | -4%
COc1ccc(/C=N/n2cnnc2SCc2ccc(OC)cc2)cc1 | >57 | -31%
Nc1ccc(C(=O)OCCCc2nc3ccccc3[nH]2)cc1 | >57 | -17%
CCCCCCCCn1sccc1=O | x | u

# Other entries follow:
Structure,SmPrx2 inh,Anthrax LT inh
Cc1cc(C(=O)NCCCn2ccnc2)sc1-c1ccccc1,>57,u
COc1cccc(CN(Cc2cccnc2)S(=O)(=O)c2ccc(-n3cnnn3)c(C)c2)c1OC,>57,2%
CC1=CC(C)(C)C(C(=O)O)C(C(=O)O)C1 (centres undefined),>57,x
COc1ccc(C(=O)Nc2cc3c(cc2C#N)OCO3)cc1S(=O)(=O)N1CCN(C)CC1,>57,9%
COc1ccc(Cl)c(S(=O)(=O)N2CCCC2)c1,>57,0%
COc1ccc(C(=O)N2CCC3(CC2)CN(c2cccc(-c4ccccc4)c2)C3)cc1,>57,u
Cc1cc(=O)n2nc(N3CCCC(C(=O)N4CCN(C)CC4)C3)sc2n1 (centres undefined),>57,11%
O=C(Cl)c1ccccc1F,x,3%
COC(=O)c1cn(C)c2ccc(S(=O)(=O)N3CCCC3)cc2c1=O,>57,x
Cc1ccc(OCCSc2nnc(-c3ccncc3)n2C)cc1,>57,-11%

# (continued)
Structure,SmPrx2 inh,Anthrax LT inh
Cc1ccccc1-c1ccc2ncnc(N3CCN(C)CC3)c2c1,>57,u
C=CCc1ccccc1OCC(O)CN1CCN(c2ccccc2F)CC1 (centres undefined),>57,u
Cc1cc(=O)[nH]c(-n2nc(C)cc2C)n1,>57,-5%
Cc1ccc(-n2c(C)cc(C)c(C#N)c2=O)cc1Cl,>57,13%
O=C(c1cccnc1)N1C2C=CC(C2)C1(C(F)(F)F)C(F)(F)F (centres undefined),>57,-3%
CCN(CC)c1nc2ccccc2nc1C(C#N)C(=O)NCCCOC (centres undefined),>57,0%
O=C(CSc1nnc(Cn2c(=O)sc3ccccc32)n1-c1ccccc1)N1CCCCCC1,>57,-3%
CC1(C)CC(=O)C2=C(C1)NC(=O)CC2c1cccc(F)c1 (centres undefined),>57,7%
Cc1c(C(=O)O)sc(=S)n1CCOc1ccccc1,>57,-8%
O=C(CSc1nc2ccccc2n1CC(=O)N1CCCC1)Nc1ccc2c(c1)OCO2,>57,13%

# New compounds follow:
Structure,SmPrx2 inh,Anthrax LT inh
COc1ccccc1-c1nc(NCc2cnc(C)cn2)c2ccccc2n1,>57,-1%
Cc1ccc(C(C)C)c(OCC(=O)N2CCOCC2)c1,>57,1%
CCCc1nnc2n1N=C(c1ccc(OC)c(OC)c1)CS2,>57,4%
COc1cc(OC)cc(OCC(O)Cn2cnc(-c3ccccc3)c2)c1 (centres undefined),>57,u
COc1ccc(CCNc2nc(N3CCCCC3)nc(N3CCCCC3)n2)cc1OC,>57,6.3µM*
O=C(CSc1nnc(-c2ccccn2)n1Cc1ccco1)c1ccccc1,>57,u
CC(=O)N1SC(N)=NC1c1ccccc1 (centres undefined),>57,14%
O=C1CCc2cc(S(=O)(=O)NCCC(=O)NC3CCN(Cc4ccccc4)CC3)ccc2N1,>57,-9%
Clc1ccc(CN2C3=NCCN3c3ccccc32)cc1Cl,>57,-19%
CCCCCn1c(N2CCN(Cc3ccccc3)CC2)nc2c1c(=O)[nH]c(=O)n2C,>57,u
Cn1c(=O)c2cc(S(=O)(=O)NCCC(=O)N3CC=C(c4ccccc4)CC3)ccc2n(C)c1=O,>57,-11%

# From PubChem BioAssay
